# Screening results (PubChem BioAssay)
# Mtb growth – M. tuberculosis H37Rv growth inhibitors, H37Rv strain (AID 1626); M. tuberculosis H37Rv growth inhibition; higher % means a stronger effect; inhibition, % at 10 µM; hits with a dose series show IC50 in µM; hit rate 0.95% among 220,000;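 active means confirmed in a dose series; inconclusive means inhibition above 80% but not taken into the dose series; inactive means below 80% or under 30% at every dose of the series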;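 further: bacteria incubated seven days before Alamar blue readout; 0% = bacteria only wells and 100% = bacteria with antibiotic wells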
# Mtb betalactam – beta-lactam sensitization of Mtb H37Rv, H37Rv | M. tuberculosis H37Rv growth with meropenem, percent inhibition; hits of this screen are not shown here | hit rate 0.27% among 330,000 | inhibition, % at 25 µM;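 active means about 74% or more and at least 40 points above the plate without the antibiotic, then above 30% in a dose series; inconclusive means first-round hits that could not be retested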;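 further: growth measured after seven days incubation then overnight dye step; 0% = bacteria only wells and 100% = bacteria with antibiotic; twin plates without the antibiotic show which effects depend on it; some results filed as inactive read as strong as hits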
# Arbovirus inh – antivirals against arbovirus infection, primary screen, cell-based, full library, 10K replicate subset; arbovirus infection cell-based antiviral screen; inhibition, % at 10 µM; hit rate 0.37% among 200,000;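 active means inhibition from about 30%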;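 further: bluetongue infection of BSR cells; cell survival read as ATP light after 72 h; 0% = infected wells without compound and 100% = uninfected wells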
# YopH inh – YopH tyrosine phosphatase inhibitors, primary screen, biochemical, fluorescence Ex485/Em525; YopH tyrosine phosphatase [Yersinia enterocolitica]; inhibition, %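 (about 10 µM by stock and volumes)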; hit rate 0.16% among 140,000; AID 898, 2007;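 active means inhibition of 50% or more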;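 further: controls were vehicle for no effect and minimum signal wells for full effect; inactives centre near -20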
# RecA intein inh – Mtb RecA intein splicing inhibitors, primary screen, biochemical, fluorescence, HTS; hit rate 0.75% among 290,000; inhibition, %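 (about 9 µM by stock and volumes)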; cell-free RecA intein splicing; AID 2221, 2009; Protein RecA (Mycobacterium tuberculosis (strain ATCC 25618 / H37Rv)), P9WHJ3; in the data active means inhibition above about 30%; inconclusive means no clear call, values can overlap the other calls;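 further: 0% = vehicle wells and 100% = reference inhibitor control wells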
# Target sequence (P9WHJ3 whole entry, looked up): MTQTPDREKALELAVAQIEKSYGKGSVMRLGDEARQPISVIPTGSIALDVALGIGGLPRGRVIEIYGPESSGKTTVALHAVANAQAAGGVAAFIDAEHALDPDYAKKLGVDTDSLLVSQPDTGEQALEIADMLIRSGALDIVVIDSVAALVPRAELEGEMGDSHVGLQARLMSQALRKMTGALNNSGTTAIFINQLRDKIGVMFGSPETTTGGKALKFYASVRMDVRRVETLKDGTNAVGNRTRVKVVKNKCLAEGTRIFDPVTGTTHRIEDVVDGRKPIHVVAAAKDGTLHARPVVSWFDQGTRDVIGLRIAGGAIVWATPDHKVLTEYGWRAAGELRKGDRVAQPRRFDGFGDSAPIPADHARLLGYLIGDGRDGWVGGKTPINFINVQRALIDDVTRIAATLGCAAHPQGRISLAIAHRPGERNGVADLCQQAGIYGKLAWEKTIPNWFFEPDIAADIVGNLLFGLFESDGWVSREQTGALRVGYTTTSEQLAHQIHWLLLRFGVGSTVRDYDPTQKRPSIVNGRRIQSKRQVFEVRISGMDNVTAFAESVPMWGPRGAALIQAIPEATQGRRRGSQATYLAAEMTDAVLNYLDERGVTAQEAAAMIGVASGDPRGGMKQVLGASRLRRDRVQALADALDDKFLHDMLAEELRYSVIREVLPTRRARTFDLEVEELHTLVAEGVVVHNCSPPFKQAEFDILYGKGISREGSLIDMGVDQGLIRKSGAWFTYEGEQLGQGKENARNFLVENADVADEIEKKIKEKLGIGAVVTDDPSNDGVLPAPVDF
# Arbovirus inh repeat – recorded beside Arbovirus inh, whose call it bears; inhibition, %; measured here: 10K subset replicate screen; many hits read low in the repeat;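 first of two repeat runs on a subset; 0% = infected and 100% = uninfected wells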
# Active calls of the source: *; ? = inconclusive; nt = not tested or not shown. These rows are one share of the data; rates above refer to the full screens.
SMILES,Mtb growth,Mtb betalactam,Arbovirus inh,YopH inh,RecA intein inh,others
CCN(CC)C(=O)C1CCN(Cc2cn(C)nc2-c2ccc(Oc3ccccc3)cc2)CC1,-6%,-3,-15,nt,-1.5,
O=C(Nc1ccc(Cl)cn1)c1ccc(-c2cc(Cl)ccc2Cl)o1,nt,-3,-28,-18,-2.0,
Cc1ccc(Nc2cc(C)nn2-c2nc(C)cc(C)n2)cc1,<0.2µM*,97,-13,-17,4.2,
COC(=O)C(C)Sc1ccc2nnc(CCNS(=O)(=O)c3ccccc3)n2n1 (stereo not given),-3%,-2,1,nt,-0.2,
COc1ccc(-c2ccnc3ncnn23)cc1,-6%,0,-1,nt,1.0,
Cc1cccc(NC(=O)COC(=O)CCc2ccc(S(=O)(=O)N3CCOCC3)cc2)c1C,6%,-1,2,nt,-2.5,
O=C1c2ccccc2NC(c2cc(Cl)cc(Cl)c2O)N1Cc1cccnc1 (stereo not given),nt,-3,nt,nt,1.0,
O=c1[nH]c(=S)[nH]cc1Oc1ccc(Cl)cc1Cl,-14%,nt,nt,nt,0.1,
Cc1ccc(C(=O)Nc2ccc(C(=O)N3CCCCC3)cc2)cc1,1%,13,-4,nt,-2.2,
O=C(Nc1ccc([N+](=O)[O-])cc1)Nc1nc(-c2ccc(Cl)s2)cs1,7%,-8,-22,-23,6.9,
COc1ccc(NC(=O)CSc2ccc3nnc(-c4cccnc4)n3n2)cc1,nt,5,nt,nt,-1.3,
COCCNC(=O)C(c1ccc(C)o1)N(CCOC)C(=O)Cn1nnc2ccccc21 (stereo not given),nt,-8,13,nt,0.6,
CCC1C(=O)n2nc(-c3ccccc3)cc2N=C1C (stereo not given),2%,7,-1,-9,1.2,
O=C(Nc1cccc(Br)c1)c1cc(=O)c2ccccc2o1,nt,1,nt,nt,3.6,
COc1ccc(/C=C2/SC(=O)N(NS(=O)(=O)c3ccccc3)C2=S)cc1OC,-5%,-7,-38,-50,nt,
CCOC(=O)c1cnc(SC2CC(=O)N(c3ccccc3)C2=O)nc1N (stereo not given),3%,-6,-1,-7,2.6,
COc1ccc(C(=O)c2ccc(Cl)cc2Cl)cc1,7%,-5,-10,2,12,
CCOc1cccc(-c2nnc(SCC(=O)Nc3cc(C)ccc3OC)n2N)c1,4%,-10,3,-62,-1.5,
Cc1c(Cl)cccc1NC(=S)N(CCCN1CCOCC1)Cc1ccco1,2%,4,23,nt,0.3,
O=C(CCNS(=O)(=O)c1cccc2nsnc12)NCCC1=CCCCC1,1%,-4,7,-3,1.6,Arbovirus inh repeat=0
CCCNc1nc2c(c(=O)n(C)c(=O)n2C)n1CCc1ccccc1,9%,-5,6,-38,-0.4,
CCC/C=C(\CCC)C(NC(=O)CCc1ccccc1)c1ccc(C(F)(F)F)cc1 (stereo not given),-7%,-11,nt,nt,1.8,
CC(=NCCc1c(C)[nH]c2ccc(OC(F)(F)F)cc12)C1=C(O)CC(c2ccccc2)CC1=O (stereo not given),-8%,1,-1,nt,1.7,
CCCc1c(C(=O)N/N=C/c2sccc2C)nnn1-c1nonc1N,nt,4,nt,nt,-0.8,
Cc1nc(/N=C(\N)NC(=O)c2ccccc2)nc2ccccc12,-5%,nt,4,-17,-0.5,
Cc1nn(-c2cc(N3CCNCC3)ccc2[N+](=O)[O-])c(=O)c2ccccc12,-15%,-6,-1,2,1.2,
CN1CCN(C(=S)NC(=O)c2cccc([N+](=O)[O-])c2)CC1,nt,9,nt,nt,-1.0,
CCN(c1ccccc1)S(=O)(=O)c1ccc(OC)c(OC)c1,-6%,-8,-4,-8,-1.1,
O=C1C2CC=CCC2C(=O)N1c1ccc(OCC(O)Cn2nnc3ccccc32)cc1 (stereo not given),-2%,3,7,-9,-7.2,
COc1ccc(-n2c(SCC(=O)N3CCOCC3)nnc2C(C)N2CCCCC2)cc1 (stereo not given),2%,0,nt,nt,-3.6,
CCc1ccc(C(=O)N/N=C/c2cccc3ccccc23)nc1,11%,6,-2,-31,-0.3,
CCN(CC(=O)NCc1ccc(F)cc1)C(=O)CN1CCN(c2ccc(OC)cc2)CC1,nt,-9,nt,nt,-3.3,
COC(=O)[C@@H](NC(=O)c1cc(COc2cncc(Cl)c2)on1)c1ccccc1,nt,98,nt,nt,-6.9,
Cc1cc(NC(=O)c2ccccc2)n(C(C)(C)C)n1,-14%,-1,nt,nt,-0.9,
O=C(O)CCSc1nc2ccc(Br)cc2[nH]1,-11%,1,-3,-8,-4.6,
COc1ccc2[nH]c(=O)c(CN(CCN(C)C)C(=O)NCc3ccccc3)cc2c1,-9%,-7,0,-31,-2.1,
C[C@H](O)[C@H](O)[C@H]1CNc2nc(N)[nH]c(=O)c2N1,nt,4,nt,nt,-54,
CC(=O)Nc1ccc2nc(C)n(Cc3ccc(Cl)cc3)c(=O)c2c1,-12%,-3,2,-6,-0.1,
O=C(NCc1ccco1)c1ccc2c(c1)C(=O)N(Cc1ccccc1)C2=O,-6%,-10,6,0,-1.4,
CC(O)c1ccc(OCCN(C)c2ccccn2)cc1 (stereo not given),nt,-6,nt,nt,0.8,
Cc1nc(C(F)(F)F)c(C(=O)NC(=O)Nc2ccccc2)s1,12%,-10,-9,-19,3.2,
Cc1ccc(/C=N/NC(=O)CSc2nc3ccccc3n2Cc2ccccc2)o1,nt,0,-9,-25,11,
COc1ccccc1CCNC(=O)CCCn1nc(C)c2c(C)n(-c3ccc(C)cc3)nc2c1=O,nt,-4,nt,nt,-1.5,
CCc1nnc(NC(=O)CN2CCN(c3nc(-c4ccccc4)cs3)CC2)s1,29%,95,2,-24,-2.5,
COCC(=O)Nc1ncc(S(=O)(=O)c2ccc([N+](=O)[O-])cc2)s1,3%,-1,4,nt,-3.1,
O=C(Nc1ccc(N2CCOCC2)c(S(=O)(=O)Nc2ccc(Cl)cc2)c1)c1cnccn1,29%,54,nt,nt,2.8,
COc1ccc(C2CC(c3ccc(F)cc3)Nc3nc(N)nn32)cc1 (stereo not given),1%,-5,4,-20,1.2,Arbovirus inh repeat=4
CC/C(=N\NC(=O)OC)c1ccc(OC(F)F)cc1,2%,-5,3,nt,0.0,
Nc1nc(NCc2ccco2)nc(N2CCCCCC2)c1[N+](=O)[O-],8%,0,10,-16,5.2,
CCOC(=O)C1CCCN(C(=O)c2cc(-c3ccc(C)cc3)nc3ccccc23)C1 (stereo not given),8%,20,-1,nt,5.6,

# Next compounds
SMILES,Mtb growth,Mtb betalactam,Arbovirus inh,YopH inh,RecA intein inh,others
Cc1ccc2nc(CSc3nnc(Cc4cccs4)n3C3CCCCC3)cc(=O)n2c1,?,-8,0,-45,1.7,
Cc1ccc(S(=O)(=O)Cn2nnnc2C(CC(C)C)N2CCN(c3ccc(F)cc3)CC2)cc1 (stereo not given),3%,5,-8,18,-0.6,
Cc1ccc(Cl)cc1NC(=S)N1CCC(c2ccccc2)C1 (stereo not given),-3%,4,-16,nt,4.2,
OCc1nc2ccccc2n1CCOc1ccccc1,nt,-1,nt,nt,3.1,
O=C(c1ccc(Cl)c(F)c1F)N1CCCC1,-10%,-5,5,-12,nt,
CC(C)CCn1c(NCCN(C)C)nc2c1c(=O)[nH]c(=O)n2C,-11%,-2,2,-30,1.3,
Cc1c(-c2ccccc2)oc2c(C(=O)OCC(=O)Nc3cccc(F)c3)cccc2c1=O,7%,-5,1,-46,2.0,
CCn1cc(C(=O)NCCCOC)c(=O)c2cc(S(=O)(=O)N3CCC(C)CC3)ccc21,nt,4,nt,nt,-0.5,
COC(=O)COc1ccc(S(=O)(=O)N2CCOCC2)cc1C,-6%,-5,4,-6,1.4,
COc1ccccc1CNC(=O)c1cc2sccc2n1C,-8%,-8,14,-30,5.4,
N=c1c2c3c(sc2nc2n1CCCCC2)CCCC3,4%,-4,-14,-14,2.1,
CCn1c2ccccc2c2cc(NS(=O)(=O)c3ccccc3C)ccc21,4%,4,-22,-8,9.7,
CCOc1cc(/C=C2\C(=O)NN(c3ccccc3)C2=O)cc([N+](=O)[O-])c1O,-11%,5,-32,nt,nt,
CCCNC(=S)N1CCN(C(c2ccccc2)c2ccccc2)CC1,-5%,1,0,-22,-2.4,
C=CCOc1ccc(/C=C2\C(=N)N3N=C(S(=O)(=O)CC)SC3=NC2=O)cc1OC,-2%,10,12,nt,1.5,
CN1CCC(=NNC(=O)C(=O)NC2CCCCC2)CC1,-6%,5,11,-2,3.5,
CCc1nnc(NC(=O)CSc2ccc(-c3ccc(-n4cccn4)cc3)nn2)s1,nt,-3,nt,nt,-2.5,
CC(C(=O)Nc1ncc2c(n1)CC(C)(C)CC2=O)N1C(=O)c2ccccc2C1=O (stereo not given),-4%,-4,7,-39,1.5,
CC1=C(C(=O)OCc2ccccc2)C(c2ccc(Cl)cc2)NC(=O)N1CCCCCC(=O)O (stereo not given),-4%,-1,29,-21,2.6,
CC(=O)c1cccc(NC(=O)c2nccnc2C(=O)O)c1,-4%,-9,0,-52,3.7,

# Ordered by count of non-hydrogen atoms (high to low): part of the list above.
SMILES,Mtb growth,Mtb betalactam,Arbovirus inh,YopH inh,RecA intein inh,others
CC1=C(C(=O)OCc2ccccc2)C(c2ccc(Cl)cc2)NC(=O)N1CCCCCC(=O)O (stereo not given),-4%,-1,29,-21,2.6,
C=CCOc1ccc(/C=C2\C(=N)N3N=C(S(=O)(=O)CC)SC3=NC2=O)cc1OC,-2%,10,12,nt,1.5,
CCOc1cc(/C=C2\C(=O)NN(c3ccccc3)C2=O)cc([N+](=O)[O-])c1O,-11%,5,-32,nt,nt,
CCn1c2ccccc2c2cc(NS(=O)(=O)c3ccccc3C)ccc21,4%,4,-22,-8,9.7,
CCCNC(=S)N1CCN(C(c2ccccc2)c2ccccc2)CC1,-5%,1,0,-22,-2.4,
CN1CCC(=NNC(=O)C(=O)NC2CCCCC2)CC1,-6%,5,11,-2,3.5,
N=c1c2c3c(sc2nc2n1CCCCC2)CCCC3,4%,-4,-14,-14,2.1,

# New compounds follow.
SMILES,Mtb growth,Mtb betalactam,Arbovirus inh,YopH inh,RecA intein inh,others
COc1ccccc1N1CCN(C(=O)C(=O)N/N=C/c2ccccc2F)CC1,8%,-3,5,-13,-9.0,
C=CCNC(=S)Nc1ccc(F)cc1F,2%,-2,-12,3,0.0,
O=C(COc1cccc(Cl)c1)NCc1ccccc1,nt,-2,nt,nt,1.5,
OC1(c2cccc(F)c2)CCN(Cc2ccncc2)CC1,7%,12,9,-38,nt,
CC(C)Cn1c(-c2ccc(C#N)cc2)nc2c1c(=O)[nH]c(=O)n2CC(C)C,12%,-6,2,-17,0.4,
CCS(=O)(=O)N1CCN(C(=O)c2cccc3ccccc23)CC1,nt,5,nt,nt,2.8,
COc1ccc(NC(=O)c2cc(F)cc(F)c2)cc1Cl,-4%,2,-3,-11,-4.5,
O=C(CSc1nnc(-c2cccs2)n1-c1ccccc1)N1CCOCC1,-1%,-1,7,-14,-1.5,
O=[N+]([O-])c1cnc2ccc3ccccc3c2c1,nt,93,nt,nt,2.6,
CS(=O)(=O)N(CCc1ccccc1)CC(=O)NCc1ccc2c(c1)OCO2,7%,-1,0,-2,0.6,
O=C(Nc1cc(Oc2ccc(Cl)cc2)cc([N+](=O)[O-])c1)c1ccco1,20%,2,2,-57,-3.5,
O=C1/C(=C/c2coc3ccc(O)cc3c2=O)SC(=S)N1c1ccccc1,1%,3,nt,nt,-4.4,
CCC1CCCCN1C(=O)CSc1nc2c(c(=O)n(C)c(=O)n2C)n1C (stereo not given),1%,2,-4,nt,2.5,
COc1ccc(OCC(=O)N2CCCC(CO)(CCOc3ccccc3)C2)cc1 (stereo not given),nt,-1,nt,nt,3.2,
CCOC(=O)c1cc2c(C(F)(F)F)cc(-c3ccccc3)nc2o1,-3%,-1,8,-38,1.7,
COc1ccc(C2=NO[C@@](CC(=O)O)(C(=O)Nc3ccc4c(c3)OCCO4)C2)cc1,nt,-7,nt,nt,8.2,
O=C1NC(=O)C2(CCc3ccccc32)N1 (stereo not given),0%,-6,-4,-23,1.1,
O=C(O)c1ccc(Nc2nc(-c3cccnc3)cs2)cc1,nt,-1,nt,nt,0.0,
Cc1ccc(S(=O)(=O)/C(C#N)=C/c2c[nH]c3ccccc23)cc1,-3%,-8,-10,-21,0.1,
CCc1nnc(SCCSc2nnc(CC)n2N)n1N,-1%,0,3,6,nt,
C=CCN(CC=C)S(=O)(=O)c1ccc(C(=O)Nc2nc3c(s2)CCc2ccccc2-3)cc1,8%,nt,-31,-14,-17,
Cc1sc2ncn(-n3c(C)ccc3C)c(=O)c2c1C,-1%,-4,11,-47,-0.3,
